StopGo RLuc – Primary qHTS Assay for Foot and Mouth Disease Virus Antivirals against NCGC Sytravon and CBC Compound Libraries: Renilla Luciferase Signal; hit rate 0.32% among 120,000; AID 1745857, 2022; Potency, µM (titrated, usually from 57.5 µM), for inactives: at the top dose signal change, negative = less light; HEK cells with a luciferase reporter of 2A StopGo recoding; active means well fitted falling curve with a large enough effect; inconclusive means small, poorly fitted or top-dose-only effect; inactive means no such curve, though single readings can be large or run the other way; also: nearly all actives have a fitted effect of over 55% in size; overnight with compound
2A firefly – Primary qHTS Assay for Foot and Mouth Disease Virus Antivirals against NCGC Sytravon and CBC Compound Libraries: Firefly Luciferase Signal; Potency, µM (top dose mostly 57.5 µM), for inactives: at the top dose signal change, negative = less light; hit rate 0.23% among 120,000; HEK cells with a luciferase reporter of 2A StopGo recoding; active = well fitted falling curve with a large enough effect; inconclusive = small, poorly fitted or top-dose-only effect; inactive = no such curve, though single readings can be large or run the other way; also: nearly all actives have a fitted effect of over 60% in size; overnight with compound
* hit, by the source's call; ? = inconclusive; & = joins results of further samples; [ ] = dose if it differs, or a comment. % is scaled to controls: 0 for no effect and ±100 for the full control effect; potency is read from the fitted curve at half-maximal effect.

SMILES | StopGo RLuc | 2A firefly
Cn1c(SCC(=O)Nc2c(F)c(F)cc(F)c2F)nc2c(=O)[nH]cnc21 | -2% | 8%
CCn1c(-n2nc(C)cc2C)nc2c1c(=O)n(CC(=O)C(C)(C)C)c(=O)n2C | 2% | 1%
Clc1ccc(CSc2c[nH]c3ccccc23)cc1 | 22% | 65%[activator]
CCC(Oc1ccccc1)C(=O)Nc1nnc(S(=O)(=O)Nc2ccccc2)s1 (stereo not given) | 58%[activator] | 34%
CC(c1nc2ccccc2s1)N(C)C(=O)c1cccc(S(=O)(=O)Nc2ccc(Cl)cc2)c1 (stereo not given) | 78%[activator] | -27%
CC(C)Cn1c(=O)c2sccc2n(CC(=O)NCC2CCCO2)c1=O (stereo not given) | 19% | 15%
O=C(Cn1nnc(-c2ccccc2Cl)n1)N1CCCC1c1ccc2c(c1)OCCO2 (stereo not given) | 11% | -2%
CCOC(=O)CCN(CC1CC1)C(=O)c1cccs1 | 3% | -1%
CCc1ccccc1N(CC)C(=O)c1cc2c(s1)-c1ccccc1SC2 | 25%&3% | -25%&-3%
N#C/C(=C\c1ccc(OCC(=O)N2CCOCC2)cc1)C(=O)Nc1ccccc1 | -3% | 3%
CC(=O)Nc1ccc(S(=O)(=O)Nc2ccc(-c3cn4c(C)csc4n3)cc2)cc1 | 0% | -43%
Cc1ccc(C)c(NC(=O)COC(=O)c2nc(-c3ccccc3)oc2C)c1 | -7% | -8%
Cc1c(CNC(C)CCc2ccccc2)c(C(=O)O)c(C)n1Cc1ccc(F)cc1 (stereo not given) | 1% | -21%
O=C(O)c1ccc(COc2ccc(Cl)cc2Cl)cc1 | 17% | 159%[activator]
N#CC1(NC(=O)COC(=O)c2cc(=O)[nH]c3ccccc23)CCCCC1 | 11% | -6%
CCOc1ccc(S(=O)(=O)NCCc2csc3nc(-c4ccc(OC)c(OC)c4)nn23)cc1 | 228%[activator] | 12%
CCc1ccc(CNC(=O)c2cccc(-n3cnc4cccnc43)c2C)cc1 | -16% | -32%
CC(SC(C)c1ccc(Cl)cc1)C(N)=O (stereo not given) | 20% | 15%
CCC(=O)N1CCc2cc(Br)cc(S(=O)(=O)N3CCN(c4cccc(Cl)c4)CC3)c21 | -5% | -19%
O=S(Cc1cccc(F)c1)Cc1cccc(C(F)(F)F)c1 (stereo not given) | 33%[activator] | 0%
CCOC(=O)c1c(S(=O)(=O)N2CCCC(C(=O)NCc3ccc(F)cc3)C2)c(C)n(CC)c1C (stereo not given) | 22% | 4%
O=C(O)C(c1c[nH]c2ccccc12)N1CCc2ccccc2C1 (stereo not given) | -12% | 0%
Cc1cc(NC(=O)COc2ccccc2)cc(-c2nc3ccccc3o2)c1O | -11% | 5%
CCOC(=O)c1ccc(CSc2nnc3cc(C)c4ccccc4n23)cc1 | -8% | 7%
Cc1ccc(-c2c3c(nc4sc5c(c24)CCCC5)CC(C)(C)CC3=O)cc1 | -4% | 1%
CCc1cc(=O)n(CC(=O)Nc2ccc(F)cc2)c(-c2ccccc2)n1 | 51%[activator] | 0%
Cc1ccc(C)c(-n2nnc(C(=O)Nc3ccc(Br)cc3)c2C)c1 | ? | 36%[activator]
O=C(CC1C(=O)OCCN1Cc1ccccc1)Nc1ccc(F)cc1 (stereo not given) | 3% | -9%
COc1ccc(CN(C)C(=O)CSc2nc(-c3cccs3)nc3ccccc23)c(OC)c1OC | -12% | -13%
CN(C)S(=O)(=O)c1ccc2c(c1)N(CC(=O)N1CCN(c3ccc(F)cc3)CC1)CCS2 | 12% | -8%
CCCCC(CC)COC(=O)c1ccccc1C(=O)O (stereo not given) | 5%[114 µM] | -5%[22.9 µM]
CC(C)(C)c1ccc(C(=S)NCCCN2CCCC2=O)cc1 | 10% | 0%
CCCc1nn2c(=O)cc(CSCC(=O)Nc3ccccc3)nc2s1 | -8% | -3%
Cc1ccc(NC(=O)C2CCN(c3nc4ccccc4[nH]3)CC2)c(C)c1 | -19% | -23%
O=C(O)c1ccccc1S(=O)(=O)Cc1ccccc1 | -8% | -5%
CSc1cccc(NC(=O)c2cc3c(COC(C)=O)cnc(C)c3oc2=O)c1 | -18% | -19%
CC(C)CCNC(=O)c1ccc2c(c1)N(C)C(=O)c1ccccc1S2 | 197%[activator] | 5%
Cc1ccc(/C(=N/O)c2cccs2)cc1 | 16% | 44%[activator]
CCOCCCNC(=O)/C=C/c1ccc(-c2ccc(F)cc2)s1 | ? | -12%
Cc1ccc(NC(=O)CSc2nnc(OC(C)C)s2)c(Cl)c1 | -1% | 15%
COc1ccc(NC(=O)COc2ccc3c(C)cc(=O)oc3c2C)cc1 | -4% | 0%
CCc1ccc(NC(=O)c2ccc(-c3ccccc3)s2)cc1 | -8% | 0%
CCCCc1ccc2[nH]c(C)c(CCN)c2c1 | 24% | 0%
CN(CC(=O)Nc1ccc(F)cc1)Cc1nc2ccccc2c(=O)[nH]1 | -4% | 5%
COc1ccc(NC(=O)CSc2nc3ccccc3n2Cc2cccc(OC)c2)cc1 | 2% | -19%
COc1ccc(NC(=O)c2ccc(C3Nc4ccccc4S(=O)(=O)N3)cc2)cc1OC (stereo not given) | 4% | 85%[activator]
O=C(Cc1c(Cl)cccc1Cl)OCc1ccc(Cl)cc1Cl | -1% | 27%
CCCCc1nc2sc3c(NCC(C)O)ncnc3c2c2c1CCC2 (stereo not given) | 8% | 14%
CCOC(=O)C(=Cc1ccc(C)cc1)C(=O)OCC | ? | ?
Clc1ccc(C(Cn2ccnc2)OCc2c(Cl)cccc2Cl)c(Cl)c1 (stereo not given) | ? | 11%[11.5 µM]
CSc1ccc(CCNC(=O)C2CCN(c3nc4ccccc4nc3C(F)(F)F)CC2)cc1 | -13% | -15%
Cc1cc2oc(=O)cc(CN3CCOCC3)c2cc1C | 1% | 7%
Cn1c(-n2ncc(N3CCN(c4cccc(C(F)(F)F)c4)CC3)c(Cl)c2=O)nc2ccccc21 | -16% | -6%
O=C(CCCC(=O)NN=C1CCCC1)NN=C1CCCC1 | -3% | -4%
CC(=O)c1c(C)oc2c(Cl)cc(NS(=O)(=O)c3cc(C)c(C)cc3C)cc12 | 37%[activator] | -12%
Nc1nc(Nc2ccc(Cl)cc2Cl)nc(-c2cc3ccccc3o2)n1 | 4% | 24%
Cn1c(=O)c2c(nc(NCc3ccccc3)n2Cc2ccccc2)n(C)c1=O | -18%&-1% | -19%&-19%
Cn1c(=O)c2c(ncn2CC(=O)NC(C)(C)C)n(C)c1=O | -10% | -5%
CCN(CC1COc2ccccc2O1)C(=O)CSc1nnnn1C1CC1 (stereo not given) | 7% | 15%
O=C(CCc1ccccc1Cl)NCc1cccc(C(F)(F)F)c1 | -5%[1.06 µM] | 75%[activator]

15 of the compounds above, with values under each structure:
Values run as follows: StopGo RLuc	2A firefly
COc1ccc(NC(=O)c2ccc(C3Nc4ccccc4S(=O)(=O)N3)cc2)cc1OC (stereo not given)
    4%	85%[activator]
O=C(Cc1c(Cl)cccc1Cl)OCc1ccc(Cl)cc1Cl
    -1%	27%
CCCCc1nc2sc3c(NCC(C)O)ncnc3c2c2c1CCC2 (stereo not given)
    8%	14%
CCOC(=O)C(=Cc1ccc(C)cc1)C(=O)OCC
    ?	?
Clc1ccc(C(Cn2ccnc2)OCc2c(Cl)cccc2Cl)c(Cl)c1 (stereo not given)
    ?	11%[11.5 µM]
CSc1ccc(CCNC(=O)C2CCN(c3nc4ccccc4nc3C(F)(F)F)CC2)cc1
    -13%	-15%
Cc1cc2oc(=O)cc(CN3CCOCC3)c2cc1C
    1%	7%
Cn1c(-n2ncc(N3CCN(c4cccc(C(F)(F)F)c4)CC3)c(Cl)c2=O)nc2ccccc21
    -16%	-6%
O=C(CCCC(=O)NN=C1CCCC1)NN=C1CCCC1
    -3%	-4%
CC(=O)c1c(C)oc2c(Cl)cc(NS(=O)(=O)c3cc(C)c(C)cc3C)cc12
    37%[activator]	-12%
Nc1nc(Nc2ccc(Cl)cc2Cl)nc(-c2cc3ccccc3o2)n1
    4%	24%
Cn1c(=O)c2c(nc(NCc3ccccc3)n2Cc2ccccc2)n(C)c1=O
    -18%&-1%	-19%&-19%
Cn1c(=O)c2c(ncn2CC(=O)NC(C)(C)C)n(C)c1=O
    -10%	-5%
CCN(CC1COc2ccccc2O1)C(=O)CSc1nnnn1C1CC1 (stereo not given)
    7%	15%
O=C(CCc1ccccc1Cl)NCc1cccc(C(F)(F)F)c1
    -5%[1.06 µM]	75%[activator]

Next entries follow.
SMILES | StopGo RLuc | 2A firefly
CCOC(=O)c1oc2cc(OC(=O)c3ccco3)ccc2c(=O)c1-c1ccc(OC)c(OC)c1 | 13% | 24%
CC(=O)N(CCC1(Cc2ccccc2)CCCC1)C1CCOC(C)(C)C1 (stereo not given) | ? | ?
C#CC[N+]1(CC#Cc2ccccc2)CCCC1 | 8%[1.06 µM] | -2%
COc1cccc(C(=O)N(C)CCCNC(=O)c2nc3ccccc3c(=O)[nH]2)c1 | -4% | 55%[activator]
N#Cc1c(N)c(C(=O)c2ccc3c(c2)OCCO3)n2c1CCC2 | 12% | 5%
COc1cc(C#N)ccc1OC(=O)Cc1coc2ccc3ccccc3c12 | -9%[1.06 µM] | 5%
COc1cc(NC(=O)CSc2nc3ccccc3nc2Cc2ccc(Cl)cc2)cc(OC)c1 | 13% | -7%
CCOc1ccc(NC(=O)NCCN2CCN(c3ccccc3F)CC2)cc1 | 20% | 0%
O=C(Nc1ccc(Br)cc1)c1ccc(Br)c(S(=O)(=O)NCc2ccccc2)c1 | 60%[activator] | ?
COCCN1C(=O)c2oc3ccc(C)cc3c(=O)c2C12C(=O)N(C)c1ccccc12 (stereo not given) | -16% | -18%
CC(=O)c1ccc(S(=O)(=O)N2CCCC2c2cccn2C)cc1 (stereo not given) | 7% | 8%
COc1ccc(CNC(=O)c2ccc(NC(=O)N3CCSc4ncccc43)cc2)cc1OC | -8% | -6%
CCCOc1ccc(NC(=O)CC2C(=O)N(c3cccc(C)c3)C(=O)N2CCc2ccncc2)cc1 (stereo not given) | -4% | -23%
COc1ccc(NC(=O)c2oc3ccccc3c2NC(=O)C23CC4CC(CC(C4)C2)C3)cc1 | -3% | 19%
CCOc1cc(C)c(Cl)cc1S(=O)(=O)N1CCCCC1CC (stereo not given) | 154%[activator] | -2%
Cc1nc2cccnc2n1-c1cccc(C(=O)N2CCN(c3ccc(Cl)cc3)CC2)c1 | ? | ?
CC(C)Oc1ccc(C(=O)Nc2ccc(C(F)(F)F)oc2=O)cc1 | 3% | 2%
COc1ccc(-c2nc(Cn3c(=O)cc(-c4ccccc4)c4c(C)nn(C)c43)c(C)o2)cc1OC | -15% | -2%
COc1ccc(C(=O)Nc2nc3n(n2)C(c2ccccc2)C=C(c2ccccc2)N3)cc1 (stereo not given) | 1% | 7%
CCCCn1c(C)c(C(=O)OCC)c2cc(O)ccc21 | -4% | 9%

Pulled one by one from the entries so far, 2 records:
SMILES | StopGo RLuc | 2A firefly
COc1ccc(C(=O)Nc2nc3n(n2)C(c2ccccc2)C=C(c2ccccc2)N3)cc1 (stereo not given) | 1% | 7%
COc1ccc(CNC(=O)c2ccc(NC(=O)N3CCSc4ncccc43)cc2)cc1OC | -8% | -6%

Next entries.
SMILES | StopGo RLuc | 2A firefly
CCCCOc1ccc(NC(=O)c2cccc(C)c2)c2cccnc12 | 2% | 0%
CCN(CC)c1nc2ccccc2nc1C(=O)Nc1c(C)cc(C)cc1C | 0% | 3%
COc1cccc(-c2nc(CS(=O)(=O)CC(=O)NCCc3ccc(Cl)cc3)c(C)o2)c1 | 3% | -7%
CC1(C)CC(=O)c2cc(-c3nc(-c4ccc(Cl)cc4)cs3)c(=O)[nH]c2C1 | -4% | -9%
COc1ccc(C(=O)N2CCN(C(=O)OC(C)(C)C)CC2)c(OC)c1OC | -1% | -6%
CCOC(=O)[C@]12CCCCC/C=C\1N(Cc1ccc(OC)cc1)C(=O)[C@H]2CC(=O)N1CCC(c2ccccc2)CC1 | ? | ?
COc1ccc(-c2cc(C(=O)OCC#N)c3ccccc3n2)cc1OC | -7% | 23%
Cn1cc(C2Nc3ccccc3C(=O)N2c2ccc(Cl)cc2)c(=O)n(C)c1=O (stereo not given) | 4% | 188%[activator]
Cc1nn(CC(=O)NC(C)(C)C)c(C)c1S(=O)(=O)N1CCCC(C(=O)N2CCC(C)CC2)C1 (stereo not given) | -1% | 8%
CN(C)C(=O)C1CCCN1c1ncnc2ccccc12 (stereo not given) | -4% | 2%
COc1ccc(NC(=O)CSCc2cc(=O)n3cc(C)ccc3n2)cc1Cl | -7% | -11%
COCCCNC(=O)C1CCCN(c2nn3cc(-c4ccc(C)cc4)nc3s2)C1 (stereo not given) | -12% | 36%[activator]
CCOC(=O)COc1ccc2c(=O)c(Oc3ccccc3OC)coc2c1 | 11% | 20%
O=C(NCc1ccccn1)C1(c2ccccc2)CCC1 | 4% | 14%
O=C(NCCn1ccc2ccccc21)c1cccc([N+](=O)[O-])c1 | 11% | 97%[activator]
Cc1c2cnn(-c3ccccc3)c(=O)c2c(C)n1CCCC(=O)NCc1cccc(Cl)c1 | ? | 32%[activator]
COP(=O)(OC)c1nc(-c2ccc([N+](=O)[O-])cc2)oc1NCc1ccccc1 | 63%[activator] | -3%
CCCS(=O)(=O)c1ncc(Cl)c(C(=O)Nc2c(C(=O)c3ccccc3)oc3ccccc23)n1 | 7%&5% | 11%&-5%
CCOc1ccc2nc(SCC(=O)N3CCN(S(=O)(=O)c4ccccc4)C3)[nH]c2c1 | 66%[activator] | -1%
Cc1cc(NC(=O)CN2CCN(c3nc(N4CCCC4)nc(N4CCCC4)n3)CC2)no1 | -4% | -3%

Screening data as filed in PubChem.
